Bioassay records: PubChem, several laboratories
YopH PTP inh = blocks Yersinia enterocolitica YopH tyrosine phosphatase; fluorescence Ex485/Em525; inhibition, %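 (about 10 µM by stock and volumes)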; actives 0.16% (n = 140,000); AID 898;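 active = inhibition of 50% or more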;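 note: controls were vehicle for no effect and minimum signal wells for full effect; inactives centre near -20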
Mtb bLac sens = beta-lactam sensitization of Mtb H37Rv. M. tuberculosis H37Rv growth with meropenem, percent inhibition; hits of this screen are not shown here. inhibition, % at 25 µM. actives 0.27% (n = 330,000). AID 434955;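 active = about 74% or more and at least 40 points above the plate without the antibiotic, then above 30% in a dose series; inconclusive = first-round hits that could not be retested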;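 note: growth measured after seven days incubation then overnight dye step; 0% = bacteria only wells and 100% = bacteria with antibiotic; twin plates without the antibiotic show which effects depend on it; some results filed as inactive read as strong as hits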
Arbovirus anti = antivirals against arbovirus infection | arbovirus infection cell-based antiviral screen | inhibition, % at 10 µM | actives 0.37% (n = 200,000);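 active = inhibition from about 30%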;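 note: bluetongue infection of BSR cells; cell survival read as ATP light after 72 h; 0% = infected wells without compound and 100% = uninfected wells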
RecA intein inh = inhibitors of M. tuberculosis RecA intein splicing; P9WHJ3; cell-free RecA intein splicing, fluorescence; inhibition, %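 (about 9 µM by stock and volumes)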; actives 0.75% (n = 290,000); in the data active = inhibition above about 30%; inconclusive = no clear call, values can overlap the other calls;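 note: 0% = vehicle wells and 100% = reference inhibitor control wells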
Target sequence (P9WHJ3 whole entry, looked up): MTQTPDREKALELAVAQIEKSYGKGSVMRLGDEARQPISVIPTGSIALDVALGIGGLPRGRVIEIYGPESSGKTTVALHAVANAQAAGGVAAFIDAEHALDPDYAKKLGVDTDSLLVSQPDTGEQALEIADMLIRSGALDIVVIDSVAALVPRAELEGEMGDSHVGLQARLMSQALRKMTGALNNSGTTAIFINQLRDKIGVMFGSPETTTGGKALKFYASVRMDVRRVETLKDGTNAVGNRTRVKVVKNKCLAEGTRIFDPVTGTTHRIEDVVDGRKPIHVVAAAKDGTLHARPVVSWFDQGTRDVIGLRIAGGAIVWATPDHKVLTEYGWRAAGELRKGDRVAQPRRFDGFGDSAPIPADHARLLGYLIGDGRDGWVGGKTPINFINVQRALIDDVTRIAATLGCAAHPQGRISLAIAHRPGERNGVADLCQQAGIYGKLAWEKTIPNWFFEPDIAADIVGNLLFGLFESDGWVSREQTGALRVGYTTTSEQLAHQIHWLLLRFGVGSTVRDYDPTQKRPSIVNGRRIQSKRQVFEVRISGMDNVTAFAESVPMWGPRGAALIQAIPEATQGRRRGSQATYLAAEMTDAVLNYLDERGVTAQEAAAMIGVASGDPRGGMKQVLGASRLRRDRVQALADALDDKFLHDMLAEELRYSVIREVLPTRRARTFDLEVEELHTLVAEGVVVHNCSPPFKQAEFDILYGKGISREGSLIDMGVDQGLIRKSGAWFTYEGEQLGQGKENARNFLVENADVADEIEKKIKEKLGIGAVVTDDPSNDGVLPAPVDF
Mtb growth = M. tuberculosis H37Rv growth inhibitors, H37Rv strain (AID 1626); actives 0.95% (n = 220,000); M. tuberculosis H37Rv growth inhibition; higher % means a stronger effect; one-dose inhibition, % at 10 µM; IC50 in µM for titrated hits;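 active = confirmed in a dose series; inconclusive = inhibition above 80% but not taken into the dose series; inactive = below 80% or under 30% at every dose of the series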;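 note: bacteria incubated seven days before Alamar blue readout; 0% = bacteria only wells and 100% = bacteria with antibiotic wells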
Arbovirus anti repeat = further read-out of Arbovirus anti, marked with its call; inhibition, %; measured here: 10K subset replicate screen; many hits read low in the repeat;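 first of two repeat runs on a subset; 0% = infected and 100% = uninfected wells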
Active calls of the source: *; ? = inconclusive; . = not tested or not shown; & = joins results of further samples.

SMILES	YopH PTP inh	Mtb bLac sens	Arbovirus anti	RecA intein inh	Mtb growth	others
Cc1nc2scc(C)n2c(=O)c1S(=O)(=O)Nc1ccc(OC(F)(F)F)cc1	.	0	.	-4.4	.
CC1(C)C2CCC1(CS(=O)(=O)N1CCC(C(=O)O)CC1)C(=O)C2 (centres undefined)	.	2	.	-0.4	-8%
Cn1c(=O)c2c(ncn2CC(=O)Nc2nnc(Cc3ccccc3)s2)n(C)c1=O	9	21	0	1.0	-5%
COc1ccccc1C1C2CCCCC2(O)CCN1CC(=O)Nc1ccccc1 (centres undefined)	-34	-11	0	1.8	-3%
Cn1c(=O)[nH]c(=O)c2c1nc(SCCN1CCOCC1)n2Cc1ccccc1	-6	-2	5	1.8	0%
CN(c1ccccc1)P(=O)(N(C)c1ccccc1)N(C)c1ccccc1	.	36	26	0.6	10%
CC(C)(C)c1ccc(S(=O)(=O)N2CCN(CC(=O)NC(=O)NC3CCCCC3)CC2)cc1	.	-13	.	-0.1	.
Cc1cccc(N2C(=O)NC(=O)/C(=C\c3cccn3-c3ccc(Cl)cc3)C2=O)c1	-21	63	2	-1.4	-8%
CC(C)(C)C(=O)CN1CCN(S(=O)(=O)c2ccc(F)cc2)CC1	-36	6	6	0.0	-10%
O=C(Cn1nc(-c2ccc(N3CCOCC3)c([N+](=O)[O-])c2)c2ccccc2c1=O)N1CCCCC1	-31	6	6	0.8	-6%
Cc1[nH]nc2c1/C(=N/O)CC(c1ccccc1)C2 (centres undefined)	-33	2	-4	4.2	-3%
Cc1cc(C)c(S(=O)(=O)N2CCN(CCO)CC2)c(C)c1	-45	-1	5	-0.7	4%	Arbovirus anti repeat=0
Cc1cc(C(F)(F)F)nc(SCC(=O)Nc2c(C)n(C)n(-c3ccccc3)c2=O)n1	.	-1	.	-0.9	.
Cc1ccc(S(=O)(=O)N(CC(=O)NCCSCc2ccco2)c2ccc(F)cc2)cc1	.	-12	-4	12	-3%
CCN(CC(=O)Nc1ccc2c(c1)OCCO2)S(=O)(=O)c1ccc(C)cc1	-12	-8	-5	3.9	6%
CCn1c(=O)c2cc(C(=O)Nc3cc(C)on3)sc2c2ccccc21	-26	-2	-8	-1.0	.	Arbovirus anti repeat=-12
COc1cc(C2NC(=O)CS2)cc(OC)c1OC (centres undefined)	14	-3	-1	3.8	4%
Cc1cc(=O)n2[nH]c(-c3ccc(C(C)(C)C)cc3)cc2n1	-8	60	-16	-4.0	6%&18%
CSc1nc(-c2ccco2)nn1C(=O)c1ccc(Cl)cc1	1	.	5	.	.
COC(=O)c1cn(CC(=O)NCc2cccs2)c2ccccc12	4	-3	10	1.2	-2%
Cc1ccc(-c2c(C(=O)N/N=C/c3ccoc3)nnn2-c2nonc2N)cc1	.	4	.	-1.2	.
Oc1ccc(Cl)cc1C1=Nc2ccccc2N=C(c2ccco2)C1	-22	6	-11	-41	-2%
FC(F)(F)c1ccccc1CN1CCN(Cc2ccccc2)CC1	-7	-1	-2	3.1	-9%
COC(=O)C(CC(C)C)NC(=O)C(Cc1ccccc1)NC(=O)C1CCCN1C(=O)OC(C)(C)C (centres undefined)	.	4	7	-1.9	-4%
Cc1oc(-c2cccc(Cl)c2)nc1CN(C)C1CCOC1 (centres undefined)	.	0	-1	2.9	-3%

Fetched one by one from above, 2 records:
SMILES	YopH PTP inh	Mtb bLac sens	Arbovirus anti	RecA intein inh	Mtb growth	others
Cc1oc(-c2cccc(Cl)c2)nc1CN(C)C1CCOC1 (centres undefined)	.	0	-1	2.9	-3%
Cc1cc(=O)n2[nH]c(-c3ccc(C(C)(C)C)cc3)cc2n1	-8	60	-16	-4.0	6%&18%

Next part.
SMILES	YopH PTP inh	Mtb bLac sens	Arbovirus anti	RecA intein inh	Mtb growth	others
CN1CCc2c(sc(N)c2C(N)=O)C1	6	18	3	-15	-5%
COCCN(CCOC)S(=O)(=O)c1ccc(C(=O)Nc2nc(-c3ccccc3)c(C(=O)c3ccccc3)s2)cc1	-22	7	10	-2.2	12%
CC1CCCCN1C(=O)c1ccc(N2CC3CC(C2)c2cccc(=O)n2C3)c([N+](=O)[O-])c1 (centres undefined)	-23	-2	-4	-4.4	2%
Cc1ccccc1NC(=O)CCC(=O)OCC(=O)c1cccc([N+](=O)[O-])c1	.	-16	-5	-4.2	-3%
Cc1cccc(CSCCNC(=O)Nc2ccccc2)c1	-10	-8	7	1.3	5%
Cc1ccc2nc(NCCCO)[nH]c2c1	-29	?	0	-0.2	2%
CCC(C)c1ccc(O)c(NC(=O)c2cccnc2)c1 (centres undefined)	-24	28	22	-2.8	-12%
CCCCn1c(N)c(N(CCOC)C(=O)COc2ccc(Cl)cc2)c(=O)[nH]c1=O	.	2	-4	-1.1	-3%
COc1ccc(-c2ccc(CCC(=O)O)n2NC(=O)c2cccs2)cc1	0	40	-2	-0.1	0%
COc1ccc(C(=O)Nc2cccc(C(C)=O)c2)cc1OC	-16	-10	-9	-0.2	-2%
CC(C)(C)C(=O)NC1(C(F)(F)F)NC(=O)N(CCc2ccccc2)C1=O (centres undefined)	.	-11	.	-1.2	.
CC1CCCC(N2CCN(C(=O)c3ccc(F)cc3)CC2)C1 (centres undefined)	-12	?	-14	-0.9	-8%	Arbovirus anti repeat=-4
O=C(O)C1C2CCC(O2)C1C(=O)NCc1ccccc1Br (centres undefined)	.	1	4	0.3	-2%
COc1cccc(CN(C(=O)COc2ccc(C)cc2)C2CCS(=O)(=O)C2)c1 (centres undefined)	.	1	.	-3.0	.
FC(F)(F)c1ccc(CNCCc2ccc3c(c2)OCO3)cc1	.	6	.	6.8	.
COc1ccccc1N1C(=S)NC2CS(=O)(=O)CC21 (centres undefined)	.	-6	.	0.2	-7%
COc1ccccc1C1CC(=O)Nc2c1c(=O)n(C)c(=O)n2C (centres undefined)	-30	-5	8	-0.3	5%
O=[N+]([O-])c1ccc(O)c(/C=N/Nc2ccccc2Cl)c1	.	13	-21	.	?
CCOc1cc(C=C2C(=O)NC(=O)NC2=O)cc([N+](=O)[O-])c1O	.	13	7	30	-2%
COc1cc(/C=C2/NC(=O)N(CC(=O)Nc3cccc(C)c3)C2=O)ccc1OCC(N)=O	.	-5	-1	0.5	0%
C=C1CCN([C@@H](CC(C)C)C(=O)NCc2ccccc2)S(=O)(=O)c2ccccc21	.	-5	.	6.7	0%
O=C(Cc1nc2ccccc2[nH]1)c1ccc(Br)cc1	.	1	13	-51	2%
Cc1cc(C)n(-c2ncc3c(n2)N(CCO)CCOC3=O)n1	.	7	.	-2.0	10%
CC(=O)Nc1nc(COc2ccc3ccccc3c2)cs1	-16	2	26	5.0	6%
Cc1ccc(C)c(S(=O)(=O)N2CCCOC2CNC(=O)C(=O)NCCN2CCOCC2)c1 (centres undefined)	.	-3	.	-2.4	.

(next part)
SMILES	YopH PTP inh	Mtb bLac sens	Arbovirus anti	RecA intein inh	Mtb growth	others
CCC(=O)N1CCc2cc(S(=O)(=O)CCC(=O)N3CCN(c4ccccc4F)CC3)ccc21	.	2	.	-0.6	.
COc1ccc(OC)c(C2C(C(=O)c3ccc(C)o3)=C(O)C(=O)N2CCN2CCOCC2)c1 (centres undefined)	.	9	.	0.0	.
COc1ccccc1-c1c(NC(=O)c2ccco2)n(-c2ccccc2)nc(C)c1=O	-20	.	-1	-0.4	-7%
O=C(CSc1nnc(Cn2c(=O)sc3ccccc32)n1-c1ccccc1)Nc1nccs1	-18	-3	-10	0.2	-2%	Arbovirus anti repeat=-5
O=C(O)CSc1nnc(-c2ccncc2)n1-c1ccc(Cl)cc1	-33	-10	-2	-2.8	-9%
COC(=O)C1CCCCN1C(=O)c1ccc2oc(C(C)C)nc2c1 (centres undefined)	.	-6	.	0.9	.
C=CCN1C(=O)C(Cc2ccc(OCC)cc2)SC1=Nc1ccc(C(=O)O)cc1 (centres undefined)	-7	1	0	-0.8	-3%
O=C(Nc1ccc(N=Nc2ccccc2)cc1)c1ccc(Cl)cc1Cl	-36	2	0	0.3	2%
COC(=O)COc1cccc(/C=N/NC(=O)CCSc2ccccc2)c1	.	98	14	1.4	79%
Cc1ccc(NS(=O)(=O)c2ccc3c(c2)n(C)c(=O)n3C)cc1C	.	4	.	1.8	.
Cn1nnnc1SCCNC(=O)C1CCC(=O)N(CCc2cccc(F)c2)C1 (centres undefined)	.	-7	.	2.0	.
Cc1cccc(-n2c(SCC(N)=O)nnc2-c2ccco2)c1	.	-1	.	-1.5	.
CCC(=O)N(Cc1ccco1)c1nc(C(=O)Nc2ccc(Cl)cc2)c(C)s1	-9	3	-41	3.6	13%
CC(C)N1CCN(Cc2cccc(-c3ccco3)c2)CC1CCO (centres undefined)	.	-5	-8	-0.9	5%
CCCCCn1c(=O)c(C(=O)Nc2ccccc2S(N)(=O)=O)c(O)c2ccccc21	.	3	-11	-3.3	7%
CN(C)C(CNC(=O)c1ccc(S(=O)(=O)N(C)C)cc1)Cc1ccccc1 (centres undefined)	.	-1	7	-3.5	12%
CCN(C(=O)COC(=O)c1n[nH]c2ccccc12)C1CCS(=O)(=O)C1 (centres undefined)	-27	3	0	0.0	-6%
CCOC(=O)c1nn(-c2ccc(F)cc2)c2c1CC/C2=C/c1ccccc1	-31	10	-13	2.7	2%
Clc1ccccc1CSc1cc2c(nn1)-c1ccccc1CC2	-10	0	-2	8.1	.
CCOc1ccc(N2CC(C(=O)Nc3nnc(Cc4ccc(OC)cc4)s3)CC2=O)cc1 (centres undefined)	.	2	.	1.2	.
CC1(C(=O)NCc2ccc(Cl)c(Cl)c2)Oc2ccccc2NC1=O (centres undefined)	.	1	6	-1.2	13%
CC1=NCCN1CCNC(=O)Nc1cc(C)cc(C)c1	.	0	.	2.1	1%
CC1CCN(c2nc(NCc3ccco3)nc(N)c2[N+](=O)[O-])CC1	-12	-1	5	4.2	4%
Cc1ccc(C)c(NC(=O)Cc2coc3cc4c(cc23)CCC4)c1	-17	16	-5	-1.4	10%
NC(=O)C1CCN(c2nc3c(S(=O)(=O)c4ccccc4)nnn3c3ccccc23)CC1	.	-8	.	-3.8	.

13 entries out of the list, arranged by count of non-hydrogen atoms, descending.
SMILES	YopH PTP inh	Mtb bLac sens	Arbovirus anti	RecA intein inh	Mtb growth	others
CCC(=O)N1CCc2cc(S(=O)(=O)CCC(=O)N3CCN(c4ccccc4F)CC3)ccc21	.	2	.	-0.6	.
O=C(CSc1nnc(Cn2c(=O)sc3ccccc32)n1-c1ccccc1)Nc1nccs1	-18	-3	-10	0.2	-2%	Arbovirus anti repeat=-5
NC(=O)C1CCN(c2nc3c(S(=O)(=O)c4ccccc4)nnn3c3ccccc23)CC1	.	-8	.	-3.8	.
COc1ccccc1-c1c(NC(=O)c2ccco2)n(-c2ccccc2)nc(C)c1=O	-20	.	-1	-0.4	-7%
C=CCN1C(=O)C(Cc2ccc(OCC)cc2)SC1=Nc1ccc(C(=O)O)cc1 (centres undefined)	-7	1	0	-0.8	-3%
Cn1nnnc1SCCNC(=O)C1CCC(=O)N(CCc2cccc(F)c2)C1 (centres undefined)	.	-7	.	2.0	.
CCC(=O)N(Cc1ccco1)c1nc(C(=O)Nc2ccc(Cl)cc2)c(C)s1	-9	3	-41	3.6	13%
COC(=O)COc1cccc(/C=N/NC(=O)CCSc2ccccc2)c1	.	98	14	1.4	79%
CCN(C(=O)COC(=O)c1n[nH]c2ccccc12)C1CCS(=O)(=O)C1 (centres undefined)	-27	3	0	0.0	-6%
Cc1ccc(NS(=O)(=O)c2ccc3c(c2)n(C)c(=O)n3C)cc1C	.	4	.	1.8	.
O=C(O)CSc1nnc(-c2ccncc2)n1-c1ccc(Cl)cc1	-33	-10	-2	-2.8	-9%
Cc1cccc(-n2c(SCC(N)=O)nnc2-c2ccco2)c1	.	-1	.	-1.5	.
CC1=NCCN1CCNC(=O)Nc1cc(C)cc(C)c1	.	0	.	2.1	1%

Further structures.
SMILES	YopH PTP inh	Mtb bLac sens	Arbovirus anti	RecA intein inh	Mtb growth	others
CC(C)(C)c1ccc(C(=O)N2CCNCC2)cc1	-2	2	3	-0.7	-13%
O=C(NCc1ccco1)c1ccccc1F	11	1	-6	-1.2	-3%
COc1ccccc1N1CCN(C(c2cc3cc(C)ccc3[nH]c2=O)c2nnnn2C2CCCC2)CC1 (centres undefined)	-43	40	-3	-2.5	-2%
COc1cc(C)ccc1NC(=O)Cc1csc(NC(=O)Nc2ccccc2OC)n1	.	-5	.	-0.6	.
OC(CN1CCN(Cc2ccc3c(c2)OCO3)CC1)c1c[nH]c2ccccc12 (centres undefined)	-18	.	-11	-1.8	.
COCCNC(=O)c1ccc(CSc2nc3ccccc3s2)cc1	.	20	.	-3.3	.
CC(C)NC(=O)C1CCN(C2CCN(Cc3nc(C(C)C)cs3)CC2)CC1	.	-2	6	-0.9	-4%

Some of the compounds tested, so the mix of outcomes need not match the whole.
